High-throughput results: PubChem BioAssay, National Center for Advancing Translational Sciences (NCATS)
PINK1 expr mod = modulators of PINK1 expression; PINK1 immunofluorescence, high-content cytometry, 24 h; Potency, µM (doses to about 76.6 µM), for inactives: at the highest dose activation (PINK1 increase), most hits filed as activators; 410,000 tested, 0.2% active; AID 624263; active = well fitted activation curve with a large enough effect; inconclusive = small, poorly fitted or top-dose-only effect; inactive = flat fitted curve, though single readings scatter; cell line not stated here;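 further: potency means the concentration at half of the fitted maximal effect; % of control where 0% means no effect; nearly all actives have a fitted effect of over 65% in size; a mitochondrial uncoupler was the plate control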
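Measures PINK1 amount and localization on or inside mitochondria by immunofluorescence. Stable cells get compounds at 5 concentrations for 24 hours before fixation and staining; CCCP controls included.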
TRPML1 agonist = activates the human TRPML1 channel; activation, % (test concentration not listed); 410,000 tested, 0.12% active; Q9GZU1; TRPML1-expressing cells, Ca2+ dye fluorescence, FDSS; host cell line not named in the record; reference of the full effect not given here; in the data active = activation above about 50%; inconclusive = about 30% to 50%; inactive = below about 30%; further: 0% is about no effect; the text of the record puts the active cut at 80%
Target sequence (Q9GZU1 whole entry, looked up): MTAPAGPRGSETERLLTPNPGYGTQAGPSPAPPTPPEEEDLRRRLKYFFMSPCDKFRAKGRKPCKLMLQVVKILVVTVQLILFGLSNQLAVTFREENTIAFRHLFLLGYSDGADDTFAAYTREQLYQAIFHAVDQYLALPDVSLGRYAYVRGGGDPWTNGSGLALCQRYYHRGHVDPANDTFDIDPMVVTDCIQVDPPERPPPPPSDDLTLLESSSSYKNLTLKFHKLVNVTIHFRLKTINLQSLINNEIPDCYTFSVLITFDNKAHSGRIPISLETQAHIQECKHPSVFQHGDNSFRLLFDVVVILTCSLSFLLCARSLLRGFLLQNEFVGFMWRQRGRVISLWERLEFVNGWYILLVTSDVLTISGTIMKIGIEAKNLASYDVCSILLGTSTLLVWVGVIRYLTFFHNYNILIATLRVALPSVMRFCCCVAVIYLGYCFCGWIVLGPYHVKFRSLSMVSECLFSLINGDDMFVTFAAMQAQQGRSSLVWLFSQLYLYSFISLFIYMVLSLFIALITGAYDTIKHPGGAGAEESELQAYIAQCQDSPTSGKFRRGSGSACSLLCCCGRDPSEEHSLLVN
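Cells: TRPML1-DL, 1X Tet inducer, ~16 h at 37 degrees C/5% CO2. Dye: ABD Ca8 no-wash + quencher, 45-90 min RT. Read: 10 s baseline, compound add, 110 s agonist phase; 54-4 EC80 (4uM final), 110 s antagonist phase.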
* = called active by the depositor; ? = inconclusive. A portion of the library (hit frequency here may not be typical).

Sample of the layout (4 entries):
Molecule	PINK1 expr mod	TRPML1 agonist
Cc1c(CNC2CCCCC2)c(C(=O)O)c(C)n1Cc1cccc(Cl)c1	0.5%	0.7
O=C(CSc1nccn1-c1cccc(Cl)c1)Nc1ccc2c(c1)OCO2	21.1%	3.4
Cc1cccc(NC(=O)c2sc3nc4c(cc3c2N)CCCCCC4)c1C	6.6%	0.8
Oc1c(C(c2ccccc2)N2CCN(c3ccccc3)CC2)sc2nc(-c3ccco3)nn12 (stereo not drawn)	-2.0%	1.7

Results, repeating the preview:
Molecule	PINK1 expr mod	TRPML1 agonist
Cc1c(CNC2CCCCC2)c(C(=O)O)c(C)n1Cc1cccc(Cl)c1	0.5%	0.7
O=C(CSc1nccn1-c1cccc(Cl)c1)Nc1ccc2c(c1)OCO2	21.1%	3.4
Cc1cccc(NC(=O)c2sc3nc4c(cc3c2N)CCCCCC4)c1C	6.6%	0.8
Oc1c(C(c2ccccc2)N2CCN(c3ccccc3)CC2)sc2nc(-c3ccco3)nn12 (stereo not drawn)	-2.0%	1.7
COc1ccc(-c2onc(C)c2C)cc1S(=O)(=O)N(C)Cc1ccco1	2.7%	1.1
Cc1ccc(CCNC(=O)c2cc3ccccn3n2)cc1	0.7%	-1.4
CCN(CC)CCCNC(=O)c1c(C)oc2ncn(CC(C)C)c(=O)c12	-1.5%	0.1
CCC(C(=O)NCCc1ccc(OC)c(OC)c1OC)n1nc(C)c2sc3ccccc3c2c1=O (stereo not drawn)	2.6%	1.5
Cc1ccc2c(c1)CCC2=O	0.1%	-1.0
Cc1cccc(-n2ncc(C(=O)NCc3ccccn3)c2C2CCN(C(=O)OC(C)(C)C)CC2)c1	2.9%	0.6
CCN(CC)S(=O)(=O)c1ccc2c(c1)nc(CN(C)C(=O)Nc1cccc(Cl)c1)n2C	0.4%	-0.8
Cc1ccc(CNC(=O)c2cc(S(=O)(=O)N3CCCC(C)C3)cn2C)cc1 (stereo not drawn)	-0.2%	1.4
CC(C)(C)c1ccc(-c2nc(SCCCOc3ccccc3)n3[nH]c(=O)cc3n2)cc1	20.1%	0.3
COc1cc(-c2noc(-c3ccc(N4CCOCC4)c([N+](=O)[O-])c3)n2)cc(OC)c1OC	1.6%	-0.9
O=C(Cn1ncc2c3ccccc3n(Cc3ccccc3F)c2c1=O)NCCc1ccc(Cl)cc1	-1.2%	-0.1
Nc1ncnc2c1nc(Sc1ccc(Cl)cc1)n2[C@H]1OC2COP(=O)(O)O[C@H]2[C@@H]1O (stereo partly drawn)	1.0%	-0.3
O=C(Nc1ccc(F)c(F)c1)c1cc(S(=O)(=O)N2CCc3ccccc32)ccc1F	-1.0%	1.3
Fc1ccccc1OCc1nc(-c2ccc(-n3cccc3)cc2)no1	4.9%	2.6
CCCOc1ccc(NC(=O)CC2C(=O)N(c3ccc(C)cc3)C(=O)N2C(C)C)cc1 (stereo not drawn)	2.0%	2.2
CN1C(=O)Cc2cc(S(=O)(=O)CCC(=O)Nc3ccccc3)ccc21	0.6%	-0.2
Cc1ccc(Cl)cc1N1CCN(CCNC(=O)Nc2ccc(Cl)cc2)CC1	?	-0.3
Cc1cccc(-n2c(-c3ccco3)nc3c(cnn3-c3ccc(F)cc3)c2=O)c1	2.1%	-0.4
O=C(Cn1c(=O)n(CCCS(=O)(=O)C2CCCCC2)c(=O)c2ccccc21)Nc1ccccc1C(F)(F)F	-0.1%	-0.8
Cc1cccc(-c2noc(CN(C3CCCCC3)S(=O)(=O)c3ccc(F)cc3)n2)c1	-1.3%	0.5
CC(C)c1ccc(N2C(=O)CSC23C(=O)N(Cc2cccc(F)c2)c2ccccc23)cc1 (stereo not drawn)	0.5%	3.2
O=S(=O)(c1ccccc1)c1nc(-c2ccc(Cl)cc2Cl)oc1N1CCCCCC1	-0.5%	-0.6
O=C(CN1N=C(c2ccc(Cl)cc2)CCC1=O)NCCc1ccc(Cl)cc1	0.6%	0.4
Cc1c(-c2nnc(SCC(=O)Nc3ccc(Br)cc3)o2)nnn1-c1ccc(F)cc1	1.1%	-0.3
Cc1ccc(NC(=O)CN2C(=O)CCn3nc(-c4cccn4C)cc32)cc1	0.6%	0.2
COc1ccccc1N(CC(=O)Nc1cc(C)cc(C)c1)S(C)(=O)=O	3.1%	-1.1
CCOc1ccc(NC(=O)Cn2c(=O)n(CC(=O)NCc3ccccc3Cl)c(=O)c3sccc32)cc1	0.3%	0.7
CCN(CC)CCCNC(=O)c1ccc2c(c1)sc1nc(-c3ccc(C)cc3)cn12	6.6%	-0.5
Cc1ccc(NC(=O)NCCOCCn2c(=O)oc3ccccc32)cc1C	0.3%	-1.0
CCOc1ccccc1NC(=O)CN(c1cc(C)cc(C)c1)S(=O)(=O)c1c(C)nn(C)c1C	1.3%	2.3
Cc1ccc(-c2nsc(NC(=O)c3oc4cc(C)c(Cl)cc4c3C)n2)cc1	0.9%	1.0
Cc1cc(-c2ccccc2)nc2cc(C(=O)Nc3cc(C(F)(F)F)ccc3Cl)nn12	4.2%	-0.5
CC1CN(C(=O)Nc2ccc(C(=O)NCc3cccc(F)c3)cc2)c2ccccc2S1 (stereo not drawn)	-0.1%	2.7
COc1ccc(CCNC(=O)Cn2c(=O)nc(-c3ccccc3)c3cc(Cl)ccc32)cc1OC	-0.2%	0.5
COc1ccc(OC)c(NC(=O)c2sc3nc4c(cc3c2N)CCCCCC4)c1	4.0%	-0.9
O=C(NCCCN1CCN(c2ccc(F)cc2)CC1)c1ccc2nc(CCc3ccccc3)oc2c1	1.2%	0.5
O=C(Nc1ccc(Cl)cc1)c1cc2c(-c3ccccc3)nn(-c3ccccc3)c2s1	0.2%	3.4
CCOc1ccc(/C=C/c2nc(C#N)c(N3CCN(c4ccccc4)CC3)o2)cc1	-0.9%	-0.2
CCOC(=O)c1cnn(-c2ccc(C(=O)Nc3ccc(OC(F)(F)F)cc3)cc2)c1N	0.7%	-0.9
C/C=C(\C)NNC(=O)Cc1ccc(OC)cc1	-0.2%	-0.8
COc1cccc(CNC(=O)CSc2n[nH]c(-c3ccccc3Cl)n2)c1	3.3%	-0.2
CC(C)CC(C(=O)NCc1ccc(F)cc1)N1Cc2ccccc2C1=O (stereo not drawn)	1.0%	1.7
CNC(=O)C1CCC(Cn2c(=O)c3sccc3n(CC(=O)Nc3cc(C)cc(C)c3)c2=O)CC1 (stereo not drawn)	0.6%	-0.2
CN(Cc1ccccc1)C(=O)c1nc(-c2ccc(Cl)cc2)n2c1CCCCC2	0.8%	-0.3
Cc1ccc(C)c(N2CCN(C(=O)c3cc4c(=O)n(Cc5ccccc5)ccc4nc3C)CC2)c1	1.5%	1.2
CC(=O)Nc1ccc(S(=O)(=O)N2CCC(n3c(C(F)(F)F)nc4cccnc43)CC2)cc1	0.6%	0.0
Cc1ccc(NC(=O)C(=O)NCC(c2cccnc2)N2CCOCC2)cc1Cl (stereo not drawn)	0.9%	0.1
CCOC(=O)c1ccc2ncc(C(=O)OCC)c(NCCc3ccc(OC)c(OC)c3)c2c1	-0.1%	5.1
Cc1ccc(NC(=O)C2CCCN(S(=O)(=O)c3c(C)nn(C)c3C)C2)c(C)c1 (stereo not drawn)	6.9%	-0.2
COc1cc(C2CC(=O)N(c3ccc(C)c(Cl)c3)C3=C2C(=O)OC3)cc(OC)c1OC (stereo not drawn)	4.6%	6.6
CC(C)c1ccc(NC(=O)C2CCCN(S(=O)(=O)c3ccc(Br)s3)C2)cc1 (stereo not drawn)	4.3%	2.1
CSc1cccc(Nc2nc3c(S(=O)(=O)c4ccccc4)nnn3c3ccc(Cl)cc23)c1	-0.5%	0.7

Single entries from the entries so far.
COc1cc(C2CC(=O)N(c3ccc(C)c(Cl)c3)C3=C2C(=O)OC3)cc(OC)c1OC (stereo not drawn) – TRPML1 agonist: 6.6
CCOC(=O)c1ccc2ncc(C(=O)OCC)c(NCCc3ccc(OC)c(OC)c3)c2c1 – TRPML1 agonist: 5.1
Cc1ccc(NC(=O)C2CCCN(S(=O)(=O)c3c(C)nn(C)c3C)C2)c(C)c1 (stereo not drawn) – PINK1 expr mod: 6.9%
Cc1ccc(NC(=O)C(=O)NCC(c2cccnc2)N2CCOCC2)cc1Cl (stereo not drawn) – TRPML1 agonist: 0.1
Cc1ccc(C)c(N2CCN(C(=O)c3cc4c(=O)n(Cc5ccccc5)ccc4nc3C)CC2)c1 – TRPML1 agonist: 1.2

Next section:
canonical_smiles | PINK1 expr mod | TRPML1 agonist
CCOc1ccc(NC(=O)C2CCC(CNS(=O)(=O)c3ccc4c(c3)CCCC(=O)N4)CC2)cc1 (stereo not drawn) | 1.6% | -0.7
Cc1ccc(NS(=O)(=O)c2ccc3nc(-c4ccccc4)[nH]c3c2)cc1Cl | 22.7% | 1.4
COc1ccc(OC)c(CNS(=O)(=O)c2c(C(=O)N3CCCCCC3)c(C)n(C)c2C)c1 | 0.9% | 1.2
O=C(Nc1ccccc1)c1ccc(Cl)c(S(=O)(=O)Nc2ccccc2)c1 | 2.3% | 0.8
O=C(CN1C(=O)COc2ccc(S(=O)(=O)N3CCCCCC3)cc21)N1CCN(c2cccc(Cl)c2)CC1 | -1.0% | 1.4
CN(C)/[N+]([O-])=N\Oc1cc(OC(=O)c2ccc(N)cc2)c([N+](=O)[O-])cc1[N+](=O)[O-] | -1.3% | 1.7
CCOC(=O)c1c(-c2ccccc2)csc1NC(=O)c1cc(=O)c2ccc(C)cc2o1 | 3.7% | 0.5
Cc1ccccc1CNC(=O)C(=O)NCC(c1ccco1)S(=O)(=O)c1ccccc1 (stereo not drawn) | 0.3% | 0.6
CCCn1c(=O)sc2cc(NC(=O)c3ccccc3Cl)ccc21 | 0.3% | 0.5
CCCN(CCC)CCCNC(=O)C1CCCN(Cc2nc(-c3ccc(Cl)cc3)oc2C)C1 (stereo not drawn) | -0.5% | 0.5
O=C(Cn1c(-c2cccs2)cc2cc(Cl)ccc21)N1CCCCC1 | 0.1% | 0.4
CC(=O)c1ccc(NC(=O)CSc2nc(-c3ccccc3C)nc3c2c(=O)n(C)c(=O)n3C)cc1 | -0.8% | -0.9
Fc1ccc(-c2noc3ncnc(N4CCN(c5ccccc5)CC4)c23)cc1 | -3.1% | -0.1
CCN(C(=O)Cn1c(=O)n(CC2CCC(C(=O)NC)CC2)c(=O)c2sccc21)c1ccccc1 (stereo not drawn) | 0.7% | 0.3
CCOC(=O)CSc1nc2c(sc3cccc(F)c32)c(=O)n1Cc1ccc(OC)cc1 | -0.3% | -0.4
COc1ccc(OC)c(C2c3c(oc4ccc(C)cc4c3=O)C(=O)N2CCCN(C)C)c1 (stereo not drawn) | -0.1% | 1.7
Cc1ccc(-n2c(=O)c3oc4ccccc4c3n(Cc3cccc(F)c3)c2=O)cc1C | 1.2% | 2.1
CCc1ccc(CNC(=O)c2cnc3sc(N4CCCCCC4)nn3c2=O)cc1 | 2.1% | -0.3
CCCN1C(C(=O)c2ccccc2)=C(OC(=O)COc2ccccc2)c2ccccc2S1(=O)=O | 2.3% | -0.8
Cc1ccc(CNC(=O)Cn2c(=O)n(-c3cccc(Cl)c3)c(=O)c3sc4ccccc4c32)cc1 | 2.6% | 0.2
CCc1ccccc1NC(=O)CCCN1C(=O)COc2ccc(C)cc21 | -0.1% | 0.1
CCc1ccc(OCC(=O)Nc2cc3oc4ccccc4c3cc2OC)c(Br)c1 | 3.5% | -0.4
CC(=O)Nc1ccc(/C=C/c2ccnc3ccccc23)cc1 | -0.5% | -0.8
CNS(=O)(=O)c1cn(CC(=O)N2CCN(c3ccc(Cl)cc3)CC2)cc1S(=O)(=O)NC | 1.5% | 0.1
CCOCCn1ccc2c(OCC(=O)Nc3cccc([N+](=O)[O-])c3)cccc2c1=O | 3.7% | -0.1
COc1cccc(N2CCN(C(=O)CCCn3c(=O)[nH]c4ccc(Br)cc4c3=O)CC2)c1 | 0.8% | -0.9
O=C(CCC1CCCC1)N1CCc2c([nH]c3ccccc23)C1c1ccc(F)cc1 (stereo not drawn) | 3.3% | 11.7
CC(C)Nc1nc2c(-c3cccc(Br)c3)nnn2c2ccccc12 | 1.5% | -0.7
Cc1ccccc1C(=O)Nc1c(C)nc(Nc2ccccc2)nc1Nc1ccccc1 | 3.2% | -0.6
Cc1ccc(Cl)cc1NC(=O)CN1C(=O)COc2ccc(S(=O)(=O)N3CCCCCC3)cc21 | 0.6% | -0.8
Cc1c(Cl)cccc1-n1ncc(C(=O)NC2CCCC2)c1C1CCN(C(=O)OC(C)(C)C)CC1 | -0.8% | -0.7
COc1ccc(CNC(=O)Cn2c(=O)c3cccn3c3ccccc32)cc1 | 5.3% | 1.6
CC(=O)Nc1ccc(NC(=O)C2CCN(c3cnccn3)CC2)cc1 | -1.0% | -1.0
CCN(CC)C(=O)CSc1nc(-c2ccccc2)cc(-c2ccc(OC)cc2)c1C#N | -0.7% | -0.4
O=C(NCCc1ccc(F)cc1)C(=O)NCC(c1cccs1)S(=O)(=O)c1ccc(F)cc1 (stereo not drawn) | -0.5% | 2.1
CCOC(=O)c1ccc(NC(=O)C(C)N(c2ccc(OCC)cc2)S(C)(=O)=O)cc1 (stereo not drawn) | -0.2% | 0.4
COc1cc2nc(NC3CCN(C)CC3)nc(NC3CCN(C)CC3)c2cc1OC | -0.2% | -0.8
O=C(Nc1ccccc1)c1nc(S(=O)(=O)Cc2ccccc2F)ncc1Cl | 12.8% | 1.4
Cc1ccc(OCC(=O)Nc2ccc(C(=O)OCc3cc(=O)n4c(C)csc4n3)cc2)cc1 | 0.2% | 1.5
